VACV mCherry inh – inhibitors of vaccinia virus infection (mCherry reporter signal) | Vaccinia virus mCherry reporter infection, fluorescence; about a quarter of the inactives have no number | Potency, µM (titrated, usually from 36.5 µM), without a hit: at the highest dose activity change, negative = inhibition, actives largely listed as inhibitors | 310,000 compounds, 0.63% hits; active = well fitted inhibition curve with a large enough effect; inconclusive = small, poorly fitted or top-dose-only effect; inactive = no such curve, though single readings can be large or run the other way; tested in A549 cells; further: nearly all actives have a fitted effect of over 35% in size; inactives centre near -10
VACV Venus inh – vaccinia inhibition (Venus reporter). Vaccinia virus Venus reporter expression, fluorescence. Potency, µM (doses to about 36.5 µM), inactives show at the top dose activity change, negative = inhibition, actives largely listed as inhibitors. 330,000 compounds, 0.46% hits. AID 720580; active means well fitted inhibition curve with a large enough effect; inconclusive means small, poorly fitted or top-dose-only effect; inactive means no such curve, though single readings can be large or run the other way; tested in A549 cells; further: nearly all actives have a fitted effect of over 30% in size; inactives centre near -10
* marks the source's active call; other numbers are inactive results; i = inactive; ? = inconclusive; . = no result given; & = joins results of further samples; [ ] = another dose, or the depositor's remark. On the % scale 0 is the no-effect control and ±100 the full control effect; potency means the concentration at half of the fitted maximal effect.

SMILES | VACV mCherry inh | VACV Venus inh
N#Cc1cnc(N)c(Br)c1 | i | -14.8%
COc1ccc(Cn2ccc3nc(C)c(C(=O)N4CCN(c5ccc(OC)cc5)CC4)cc3c2=O)cc1 | -13.1% | -11.9%
CCNC(=S)Nc1cc(C)ccn1 | -17.1% | -18.4%
Nc1nc(SCC(=O)NCC2CCCO2)[nH]c(=O)c1NC(=O)c1ccco1 (stereo not given) | i | -7.6%
COc1ccc(CNS(=O)(=O)c2ccc(OC)cc2)cc1 | . | -16.3%
C[C@H](CO)N1C[C@H](C)[C@@H](CN(C)C(=O)NC2CCCCC2)Oc2ccc(NC(=O)NC3CCCCC3)cc2C1=O | i | -1.3%
CCCc1[nH]nc2c1C(c1ccc(OCCN3CCOCC3)c(OC)c1)C(C#N)=C(N)O2 (stereo not given) | -16.9% | 1.5%
CC(=O)c1ccc(NC(=O)c2nc3ccccc3n(C)c2=O)cc1 | -2.6%[7.34 µM] | -0.4%[7.34 µM]
CCN(C[C@H]1N[C@@](Cc2ccccc2)(C(=O)OC)[C@H]2C(=O)N(Cc3ccccc3)C(=O)[C@@H]12)S(=O)(=O)c1ccc(OC)cc1 | ? | -7.4%
CCCc1c(-c2ccc(Cl)cc2)ncn1Cc1cccc(-c2ccccc2)c1 | ? | -13.7%
CCOC(=O)C(Cc1ccccc1)(Cc1ccccc1)C(C)=O | 3.1% | 3.3%
Cc1nn(CC(=O)Nc2ccc(S(N)(=O)=O)cc2)c(=O)c2ccccc12 | -1.2% | -8.7%
COCCN1C(=O)c2ccccc2C1c1nc2ccccc2[nH]1 (stereo not given) | 16.4% | -1.8%
NC(=O)NC(=O)COC(=O)c1ccc(Cl)c(S(=O)(=O)N(Cc2ccccc2)c2ccc(Cl)cc2)c1 | -12.2% | -9.4%
COc1ccc(C(=O)Nc2cc3c4c(c2)CC(=O)N4CCC3)c(OC)c1 | -8.8% | -23.5%
O=C(COC(=O)c1ccc(Br)cc1)Nc1ccccc1Br | -9.4% | 2.6%
Cc1ccc(N(C)C(=O)Cn2cnc3onc(-c4ccc(F)cc4)c3c2=O)cc1C | -9.0% | -9.3%
CC(NC(=O)C(=O)Nc1c2c(nn1-c1ccc(F)cc1)CSC2)c1ccccc1 (stereo not given) | ? | -26.7%
CCn1cc(C(=O)N2CCC3(CC2)OCCO3)c(=O)c2cc(S(=O)(=O)N3CCCC3)ccc21 | -3.6% | -9.0%
Nc1nc(NC(=O)CCCC(=O)O)nn1-c1ccccc1 | . | -9.1%
C/C=C/C(=O)OCC(=O)Nc1ccc(C)c(S(=O)(=O)N(C)C)c1 | ? | ?
CN(C)c1ccc(/C=C/C=C2/C(=O)NC(=O)N(c3ccccc3)C2=O)cc1 | 7.1% | -5.7%
O=C1OCCN1C(=O)[C@H]1[C@H](c2ccc([N+](=O)[O-])cc2)C(c2ccccc2)=NN1c1ccccc1 | ? | -5.2%
N#Cc1cc(-c2ccccc2)nnc1Oc1ccccc1Cl | . | ?
COc1ccc2c(C(=O)c3ccc(C)cc3)n(CCC(N)=O)[n+]([O-])c2c1 | i | -5.5%

3 structures out of the list, sorted by length of the SMILES, descending.
SMILES | VACV mCherry inh | VACV Venus inh
CCN(C[C@H]1N[C@@](Cc2ccccc2)(C(=O)OC)[C@H]2C(=O)N(Cc3ccccc3)C(=O)[C@@H]12)S(=O)(=O)c1ccc(OC)cc1 | ? | -7.4%
Cc1nn(CC(=O)Nc2ccc(S(N)(=O)=O)cc2)c(=O)c2ccccc12 | -1.2% | -8.7%
C/C=C/C(=O)OCC(=O)Nc1ccc(C)c(S(=O)(=O)N(C)C)c1 | ? | ?

(list continues)
SMILES | VACV mCherry inh | VACV Venus inh
COc1ccc(CCNC(=O)Cn2cnc3c(nnn3Cc3ccc(C)cc3)c2=O)cc1OC | i | -16.6%
COc1cccc(N2C(=O)c3ccncc3C2=O)c1 | -2.5% | 2.8%
COc1ccc(CCNC(=O)CCc2c(C)nc3c(c(C)nn3-c3ccc(C)c(C)c3)c2C)c(OC)c1OC | -14.9% | -13.3%
O=C(COc1ccccc1)NCc1ccc2c(c1)CCN2C(=O)c1ccc(F)cc1 | -4.8% | -18.5%
O=C(COC(=O)c1ccc([N+](=O)[O-])o1)c1ccccc1 | -4.1% | -9.5%
Cc1ccc(Cn2c(SC3CCOC3=O)nc3ccccc3c2=O)cc1 (stereo not given) | -11.2% | -9.2%
Cc1cccc(C)c1NC(=O)C1CCCN1S(=O)(=O)c1ccc(-c2ccc(=O)[nH]n2)s1 (stereo not given) | -2.4% | -14.5%
COc1ccc(C(=O)NCC(c2ccco2)N2CCc3ccccc3C2)c(OC)c1 (stereo not given) | -9.3% | -14.9%
COc1ccc(C(=O)OCC(=O)NCC2CCCO2)cc1 (stereo not given) | -1.1% | 4.2%
CC(C)(C)C(c1nc2ccccc2[nH]1)n1c(-c2ccco2)nc2ccccc21 (stereo not given) | i | 19.7%
Cc1ccn2c(C(=O)CSc3ccc(Cl)cc3)c(C)nc2c1 | . | -7.2%
CCOc1ccc(NC(=O)Cn2c(=O)oc3ccccc32)cc1 | . | -17.8%
COC(=O)c1ccccc1NC(=O)N1CCN(c2ccccc2F)CC1 | 0.6% | -4.5%
CN(C)c1ccc(/C=N/NC(=O)c2ccccc2O)o1 | -17.9% | -5.2%
N#Cc1cnn2c(=O)[nH]cnc12 | i | -6.4%
Cc1ccc(-n2c(C)cc(C(=O)OCC(=O)N3CCOCC3)c2C)cc1 | -13.8% | -0.7%
CCOC(=O)c1ccc(N=c2sc(C(=O)OC)cc(=O)n2CCCN2CCOCC2)cc1 | -1.7% | 14.8%&-6.0%
CN(C)CCNC(=O)c1ccc2nc([C@@H]3O[C@H](CO)[C@H](O)[C@H](O)[C@H]3O)[nH]c2c1 | 35.5%[activator] | -17.8%
CCOC(=O)c1cnc2c(C)c(Cl)ccc2c1NCCc1ccc(OC)c(OC)c1 | -11.6% | -4.6%
Cc1nnc(SCC2=C(C(=O)O)N3C(=O)C(NC(=O)Cn4cnnn4)[C@@H]3SC2)s1 (stereo not given in full) | -14.8% | -8.8%
CN1CCN(NC(=O)c2ccccc2F)CC1 | . | -25.0%
Cc1nnc(SCC(=O)NNC(=O)c2ccc(Cl)cc2)s1 | -1.2% | 0.9%
COc1ccc(N2CCN(CCCNC(=O)c3cc(Nc4ccc(OC)cc4OC)nc4ccccc34)CC2)cc1 | -23.3% | -28.1%
O=C(CN1CCN(Cc2ccccc2F)C1=O)NCCN1CCOCC1 | i | 2.4%
Cc1ccc(NC(=O)CSc2nnc(-c3ccco3)c(-c3ccco3)n2)cc1 | ? | ?

Look-ups from the list.
CC(C)(C)C(c1nc2ccccc2[nH]1)n1c(-c2ccco2)nc2ccccc21 (stereo not given) in VACV Venus inh is entered as 19.7%
CCOC(=O)c1cnc2c(C)c(Cl)ccc2c1NCCc1ccc(OC)c(OC)c1 in VACV mCherry inh is entered as -11.6%
Cc1cccc(C)c1NC(=O)C1CCCN1S(=O)(=O)c1ccc(-c2ccc(=O)[nH]n2)s1 (stereo not given) in VACV Venus inh is entered as -14.5%
COc1ccc(N2CCN(CCCNC(=O)c3cc(Nc4ccc(OC)cc4OC)nc4ccccc34)CC2)cc1 in VACV mCherry inh is entered as -23.3%
COc1ccc(CCNC(=O)CCc2c(C)nc3c(c(C)nn3-c3ccc(C)c(C)c3)c2C)c(OC)c1OC in VACV Venus inh is entered as -13.3%

Exported with two lines to a compound: 3 of the compounds above.
Fields: VACV mCherry inh, VACV Venus inh
> Cc1ccn2c(C(=O)CSc3ccc(Cl)cc3)c(C)nc2c1
→ ., -7.2%
> CN(C)c1ccc(/C=N/NC(=O)c2ccccc2O)o1
→ -17.9%, -5.2%
> COc1ccc(CCNC(=O)CCc2c(C)nc3c(c(C)nn3-c3ccc(C)c(C)c3)c2C)c(OC)c1OC
→ -14.9%, -13.3%

Other records:
SMILES | VACV mCherry inh | VACV Venus inh
Oc1[nH]c2ccccc2c1N=Nc1ccccn1 | -12.0% | -2.6%
CCOC(=O)C(=O)Nc1c(C(=O)Nc2cccc(F)c2)oc2ccccc12 | -17.0% | -5.9%
CC(=O)N=Cc1c(C)c(C#N)c(=O)n(C)c1O | i | -17.9%
COc1ccc(-c2[nH]ncc2/C=C(/C#N)C(=O)NC2CCCCCC2)cc1 | ? | ?
CCc1ccc2oc(-c3ccc(C)c(NC(=O)/C=C/c4ccco4)c3)nc2c1 | -15.2% | -1.9%
O=C(CSc1ccc([N+](=O)[O-])cn1)Nc1cc(C(F)(F)F)ccc1N1CCOCC1 | -15.7% | -17.3%
O=C(CSc1nc2ccccc2n1Cc1c(F)cccc1Cl)N1CCN(c2ccc(F)cc2)CC1 | -16.1% | -3.3%
O=C(Cn1cccn1)c1ccccc1 | -6.0% | -18.4%
CCN(/N=C/c1ccc(Cl)cc1)c1cc(=O)n(C)c(=O)[nH]1 | i | 0.0%
CCCNC(=O)c1cccc(Cn2nc(C)c(Br)c2C)c1 | -5.7% | -16.9%
Cc1cccc(N2CCN(c3ncnc4c3nc3n4CCCCC3)CC2C)c1 (stereo not given) | ? | ?
O=C(O)C1CCCN(S(=O)(=O)c2cccc3cccnc23)C1 (stereo not given) | 22.3% | 3.4%
NC(=O)CN1CCCN(S(=O)(=O)c2ccc(Br)cc2)CC1 | -6.1% | -1.7%
Cc1ccc(NC(=O)COC(=O)c2cc(-c3cccs3)nn2-c2ccccc2)cc1[N+](=O)[O-] | -14.0% | -3.8%
OCC[C@@H]1NCc2cc(CO)cc(-c3ccccc3)c21 | -26.9% | -10.9%
CCC(C)(C(=O)NC1CCCCC1)N(C(=O)CC1NC(=O)NC1=O)c1c(C)n(C)n(-c2ccccc2)c1=O (stereo not given) | -11.3% | 8.7%

Quoted from the entries so far (four entries):
SMILES | VACV mCherry inh | VACV Venus inh
Oc1[nH]c2ccccc2c1N=Nc1ccccn1 | -12.0% | -2.6%
CCOC(=O)C(=O)Nc1c(C(=O)Nc2cccc(F)c2)oc2ccccc12 | -17.0% | -5.9%
CC(=O)N=Cc1c(C)c(C#N)c(=O)n(C)c1O | i | -17.9%
COc1ccc(-c2[nH]ncc2/C=C(/C#N)C(=O)NC2CCCCCC2)cc1 | ? | ?

Screens: PubChem BioAssay, National Center for Advancing Translational Sciences (NCATS)
